# total CFTR: compounds raising F508del-CFTR protein level – cell-based, HeLa F508del-CFTR, immunofluorescence, viability, primary screen (AID 1224863). hit rate 0.1% among 10,000. HeLa F508del-CFTR, immunofluorescence total CFTR, 24 h; by the record results were divided by relative cell number; some inactives read as strong as hits. calls, or highest fold increase where a dose series was run; in the data nearly all actives have a first-pass fold increase above 1.5; a few of its hits are not listed in these tables;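 further: total CFTR protein by anti-CFTR immunofluorescence in fixed cells; first pass at 25 µM or 10 µg/mL by library and series up to twice that; 1 = untreated cells; first-pass hits also needed half or more of the cells alive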
# total CFTR fold 25 µM: second read-out of total CFTR, no call of its own (marks repeat the call); fold increase; measured here: primary screen single dose 25 uM; library dosed in µM
# total CFTR fold 10 ug/mL: further read-out of total CFTR, marked with its call; fold increase; measured here: primary screen 10 ug/mL
# total CFTR viability 25 µM: recorded beside total CFTR, whose call it bears; viability, %; measured here: primary viability 25 uM; library dosed in µM;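 0% = killed and 100% = untreated cells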
# total CFTR viability 10 ug/mL: recorded beside total CFTR, whose call it bears; viability, %; measured here: primary viability 10 ug/mL;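 0% = killed and 100% = untreated cells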
# Numbers without * were called inactive; i = inactive; . = no result given; & = joins results of further samples. Some of the compounds tested; count on the stated rates, not on these rows.
SMILES,total CFTR,total CFTR fold 10 ug/mL,total CFTR viability 10 ug/mL,others
Cc1oc(CO)cc1C(=O)OCC(=O)Nc1sccc1C(N)=O,i,0.85,82,
C=CCn1c(=O)c2ccccc2n2c(SCCC(=O)OC)nnc12,i,1.1,103,
C[C@H]1OC(n2cc(F)c(=O)[nH]c2=O)C(O)[C@@H]1O (some centres undefined),i,.,.,total CFTR fold 25 µM=1.1;total CFTR viability 25 µM=91
C=CCSc1nnc(NC(=O)C2CC2C)s1 (centres undefined),i,0.92,89,
CN(C)CC/C=C1/c2ccccc2Sc2ccc(Cl)cc21,i,.,.,total CFTR fold 25 µM=0.97;total CFTR viability 25 µM=88
CCCNC(C)C(=O)Nc1ccccc1C (centres undefined),i,.,.,total CFTR fold 25 µM=1.2&0.95;total CFTR viability 25 µM=93&93
CC(C)(C)NC(=O)CNC(=O)C1CC1,i,0.99,99,
CC(C)CN(C(=O)CSC1=NCCS1)C1CCS(=O)(=O)C1 (centres undefined),i,0.9,92,
CN(C)C(CNc1ccccc1[N+](=O)[O-])c1ccsc1 (centres undefined),i,1.1,89,
Cc1oc(C(=O)N2CCCC(CNS(C)(=O)=O)C2)cc1S(=O)(=O)N1CCCC1 (centres undefined),i,0.93,79,
Cc1cc2oc(=O)cc(Cn3c(=O)c4c(ncn4CCC(C)C)n(Cc4ccccc4)c3=O)c2cc1C(C)C,i,0.97,95,
O=S(=O)(Nc1cc(S(=O)(=O)N2CCOCC2)ccc1N1CCCC1)c1cccc(Cl)c1Cl,i,0.89,97,
CCN(CC)C(=O)C1(c2ccccc2)CC1CN (centres undefined),i,.,.,total CFTR fold 25 µM=1.1;total CFTR viability 25 µM=94
Cc1nn(C)c(C)c1/C=C/C(=O)NC(C)C(C)C (centres undefined),i,1,99,
Cc1cc(C(C)(C)C)cc(C)c1S(=O)(=O)N1CCN(C2CCOC2=O)CC1 (centres undefined),i,0.83,97,
COc1cc2nc(CSc3nc4ccccc4o3)[nH]c(=O)c2cc1OC,i,1,91,
COc1cc(NS(=O)(=O)c2cccs2)ccc1NS(C)(=O)=O,i,1,102,
O=C(CCCN1CCC(O)(c2cccc(C(F)(F)F)c2)CC1)c1ccc(F)cc1,i,.,.,total CFTR fold 25 µM=1.1;total CFTR viability 25 µM=98
O=C(NC1CCSc2ccc(Cl)cc21)C1CCCCC1 (centres undefined),i,1,88,
CCN1CCCC1CNC(=O)c1cc(S(=O)(=O)CC)c(N)cc1OC (centres undefined),i,.,.,total CFTR fold 25 µM=1;total CFTR viability 25 µM=97
CC(C)C(NC(=O)C1CC1C)c1ccc(C(C)(C)C)cc1 (centres undefined),i,0.93,92,
O=C(CN1CSCC1=O)Nc1cc(F)cc(F)c1,i,1,93,
O=C(c1cc(S(=O)(=O)N2CCCC2)c[nH]1)N1CCN(S(=O)(=O)c2ccc(Cl)s2)CC1,i,0.97,84,
Cc1cc(NC(=O)C(C)(C)C)sc1C(=O)NC1CCN2CCCCC12 (centres undefined),i,0.98,89,
O=c1c2ccccc2nnn1CSC1=NCCS1,i,0.9,73,
CC(C(=O)O)c1ccc2c(c1)[nH]c1ccc(Cl)cc12 (centres undefined),i,.,.,total CFTR fold 25 µM=1.1;total CFTR viability 25 µM=79
Cc1nn(CCS(C)(=O)=O)c(C)c1S(=O)(=O)N1CCc2ccccc21,i,0.97,99,
O=S(=O)(Nc1ccc2c(c1)OC1(CCCC1)O2)c1ccc(S(=O)(=O)N2CCOCC2)cc1,i,0.96,93,
CC(=O)O[C@H]1CC[C@@]2(C)C(=CC[C@@H]3[C@H]2CC[C@]2(C)C(c4cccnc4)=CC[C@@H]32)C1,i,.,.,total CFTR fold 25 µM=1.1;total CFTR viability 25 µM=107
O=S(=O)(c1cccs1)N1CCN(c2nc(-c3cccnc3)nc3sc4c(c23)CCC4)CC1,i,1.1,99,
Nc1ncnc2c1ncn2[C@@H]1O[C@H](CO)[C@@H](O)[C@H]1O,i,.,.,total CFTR fold 25 µM=1.1&0.99;total CFTR viability 25 µM=116&94
O=C(c1ccc2c(c1)OCCO2)C1CCN(Cc2cc3c(cc2O)OCO3)CC1,i,1.1,92,
Cc1nc(SC(F)F)nc(C)c1CCC(=O)NCc1ccco1,i,1,104,
O=C(CCC1CCCCC1)Nc1n[nH]c(C(F)(F)F)n1,i,0.97,82,
CC(C)NC(=O)c1cc(S(=O)(=O)N2CCOCC2)cn1C,i,1.1,97,
CCOC(=O)c1c(-c2ccco2)csc1NC(=O)CC1(C(=O)O)CCCC1,i,1.1,104,
CCC(CC)NC(=O)CN1C(=O)NC2(CCCCCCC2)C1=O,i,0.99,88,
O=C1CCNCCN1,i,1.1,115,
CCCCCCCCCCCCC[N+](C)(C)Cc1ccccc1,i,.,.,total CFTR fold 25 µM=0.63;total CFTR viability 25 µM=3
CC(C)N1C(=O)C(=O)N(Cc2ccc(F)cc2Br)C1=O,i,0.96,104,
CC(Sc1nnc(C2CC2)n1C1CC1)C(=O)NC(=O)NC1CCCCC1 (centres undefined),i,0.96,88,
CCCCNS(=O)(=O)c1ccc(S(=O)(=O)N(C)C)cc1,i,1.1,102,
c1csc(-c2nc(SCC3CCCCO3)n[nH]2)c1 (centres undefined),i,1,90,
CC(Nc1nc(-c2ccncc2)nc2ccccc12)c1ccc2c(c1)OCO2 (centres undefined),i,1.1,97,
CCN1C(=O)c2ccccc2N2C(=O)CCC12C(=O)NC(C)c1ccccc1Br (centres undefined),i,0.98,109,
CC1(c2cc(F)ccc2F)NC(=O)N(Cc2cn3cc(Cl)ccc3n2)C1=O (centres undefined),i,0.99,95,
O=S(=O)(Nc1ccc2nccnc2c1)c1ccc2c(c1)CCC2,i,0.89,97,
Cc1csc(CNC(=O)CNC(=O)C2CC2)n1,i,0.96,96,
CC[C@@H]([C@H](C)O)n1ncn(-c2ccc(N3CCN(c4ccc(OC[C@@H]5CO[C@@](Cn6cncn6)(c6ccc(F)cc6F)C5)cc4)CC3)cc2)c1=O,i,.,.,total CFTR fold 25 µM=0.94;total CFTR viability 25 µM=71
Cc1sc(-c2ccco2)nc1C(=O)NC12CC3CC(CC(C3)C1)C2,i,0.86,69,
O=[N+]([O-])c1c(Sc2nnc(-c3cccs3)o2)nc2sccn12,i,1.1,106,
Nc1nc(SCc2cc(-c3ccco3)on2)n[nH]1,i,1,103,
CCOC(=O)c1c(C)nc(-c2ccco2)nc1SCC(=O)N1CCC1,i,0.95,105,
Cc1ccccc1-n1c(=O)c2ccccc2n2c(SCn3nnc4ccccc4c3=O)nnc12,i,1.1,111,
CC(C)Oc1ccc2c(=O)cc(-c3ccccc3)oc2c1,i,.,.,total CFTR fold 25 µM=0.96;total CFTR viability 25 µM=87
Cc1cc2nc(N3CCN(S(=O)(=O)N4CCOCC4)CC3)c3ccccc3n2n1,i,0.98,105,
COC(=O)CCSc1nnc(-c2cccs2)o1,i,1.1,106,
O=C1NC2(CCCCC2)C(=O)N1CN1CCN(Cc2csc3ccccc23)CC1,i,1,98,
O=S(=O)(c1cccc(Br)c1)N1CCN(S(=O)(=O)c2ccc3c(c2)OCCCO3)CC1,i,0.99,87,
CC(c1nc2ccccc2s1)N(C)Cn1[nH]c(/C=C/c2ccccc2)nc1=S (centres undefined),i,0.99,98,

# The list goes on:
SMILES,total CFTR,total CFTR fold 10 ug/mL,total CFTR viability 10 ug/mL,others
Cc1cc(CSc2nc(C)c(C)c(C)c2C#N)on1,i,0.97,78,
CN(C)c1c(N)cccc1Cl,i,0.99,89,
COc1ccc(C2CCCN2Cc2nc(N)nc(Nc3ccc(C)cc3)n2)c(OC)c1 (centres undefined),i,1.1,107,
O=S(=O)(Nc1cc(F)ccc1F)c1ccc(F)cc1Br,i,0.93,92,
O=C(c1cc2ccccc2o1)c1cc(F)ccc1F,i,0.94,104,
NC(=O)c1ccc(NC(=O)CCCCC2SCC3NC(=O)NC32)cc1 (centres undefined),i,0.95,88,
CCOC(=S)SSC(=S)OCC,i,.,.,total CFTR fold 25 µM=1.1;total CFTR viability 25 µM=94
O=C1C2CCCN2C(=O)N1CC(=O)N1N=C(c2cccs2)CC1c1ccco1 (centres undefined),i,1,90,
C=CCn1c(=O)c2ccccc2n2c(SCCCC(=O)c3ccccc3)nnc12,i,1,95,
Fc1ccc(-c2noc(CSc3nnc4ccccn34)n2)cc1,i,1.1,91,
CN(C)CCC=C1c2ccccc2CCc2ccccc21,i,.,.,total CFTR fold 25 µM=1.2&0.99;total CFTR viability 25 µM=102&97
CC(NC(=O)C(C)(C)C)c1ccc(Cl)cc1Cl (centres undefined),i,0.91,94,
Cc1nc2cc(NC(=O)C3CC(=O)N(c4cccc5ccccc45)C3)ccc2o1 (centres undefined),i,1,94,
CCOc1ccc(S(=O)(=O)N(C)CC2COc3ccccc3O2)cc1OCC (centres undefined),i,1,97,
COc1ccc(S(=O)(=O)N2CCN(c3ccc(NS(=O)(=O)c4ccccc4)nn3)CC2)cc1OC,i,1.1,110,
CNC(=O)c1[nH]c(C)c(C(=O)OC(C)C)c1C,i,1,97,
O=S(=O)(NCCCN1CCOCC1)c1ccc2c(c1)CCCC2,i,0.93,93,
COC(=O)c1c(C)[nH]c(C(=O)OCC(=O)NC(C)C)c1C,i,1,96,
Fc1cc(F)c2c(c1)N(Cc1nnnn1C1CC1)CCC2,i,0.99,94,
CCN(CC)S(=O)(=O)c1ccc(S(=O)(=O)Nc2nc3ccccc3nc2N2CCCC2)cc1,i,1,92,
c1ccc2c(-c3nnc(SCC4CCCCO4)n3C3CC3)c[nH]c2c1 (centres undefined),i,0.85,84,
COc1cc(OC)c(OC)cc1CNc1nc2sccn2c1[N+](=O)[O-],i,1.1,90,
C=CCNc1nnc(SCc2ccc(-n3cccn3)cc2)s1,i,1,92,
CCOc1ccc(-c2nc(-c3ccc(Br)cc3)cs2)cc1,i,1.2,110,
O=C(COC(=O)c1ccccc1Oc1ccccc1)c1ccccc1Br,i,1,79,
CC1CCC2(CC1)NC(=O)N(CC(=O)N1CCN(S(C)(=O)=O)CC1)C2=O (centres undefined),i,1.1,101,
CC(C)c1nc(N(C)S(C)(=O)=O)nc(-c2ccc(F)cc2)c1/C=C/[C@@H](O)C[C@@H](O)CC(=O)O,i,.,.,total CFTR fold 25 µM=1.1;total CFTR viability 25 µM=93
CC1NC(=S)N(c2ccc3c(c2)OCCCO3)C1=O (centres undefined),i,1.1,97,
O=C(Cn1c(COc2ccc(Cl)cc2Cl)nc2ccccc21)c1c[nH]c2ccccc12,i,0.94,98,
CCN(CC)CCN1C(=O)C(=O)/C(=C(/O)c2ccc(OC)cc2C)C1c1ccc(O)cc1 (centres undefined),i,1,103,
CC(NC(=O)c1ccc2c(c1)CCC(=O)N2)C1CC2CCC1C2 (centres undefined),i,1.2,101,
CN(CC(=O)NC(C)(C)C)C(=O)c1cc(Cl)sc1Cl,i,1,96,
CC(C)(C)OC(=O)N1CCCC1C(=O)N1CCN(C(=O)c2cccs2)CC1 (centres undefined),i,1.1,96,
O=C1C(=O)N(C2CCCC2)C(=O)N1CCN1C(=O)c2ccccc2S1(=O)=O,i,1.1,90,
COc1ccc(OC)c(C2CCCN2Cn2nc(C3CC3)n(C)c2=S)c1 (centres undefined),i,1.1,102,
COc1cc(OC)c(C(=O)OCc2nc(C(C)C)no2)cc1OC,i,0.9,88,
O=C(CNC(=O)c1ccc(Cl)cc1)NO,i,.,.,total CFTR fold 25 µM=1;total CFTR viability 25 µM=90
CCC(Sc1nc(C)nc(C)c1C#N)C(=O)Nc1cc(C)on1 (centres undefined),i,1,92,
COc1cc2c(cc1OC)CN(Cn1ncc3cc([N+](=O)[O-])ccc31)CC2,i,1.1,87,
Cc1nc(CC(=O)Nc2nc(-c3cccs3)cs2)cs1,i,0.86,78,
CC(Sc1n[nH]c(CCC2CCCC2)n1)C(N)=O (centres undefined),i,1,102,

# Some of these compounds in order of number of heavy atoms, rising.
SMILES,total CFTR,total CFTR fold 10 ug/mL,total CFTR viability 10 ug/mL,others
O=C(CNC(=O)c1ccc(Cl)cc1)NO,i,.,.,total CFTR fold 25 µM=1;total CFTR viability 25 µM=90
CC(Sc1n[nH]c(CCC2CCCC2)n1)C(N)=O (centres undefined),i,1,102,
CN(CC(=O)NC(C)(C)C)C(=O)c1cc(Cl)sc1Cl,i,1,96,
Cc1nc(CC(=O)Nc2nc(-c3cccs3)cs2)cs1,i,0.86,78,
CC(NC(=O)c1ccc2c(c1)CCC(=O)N2)C1CC2CCC1C2 (centres undefined),i,1.2,101,
COc1cc(OC)c(C(=O)OCc2nc(C(C)C)no2)cc1OC,i,0.9,88,
COc1ccc(OC)c(C2CCCN2Cn2nc(C3CC3)n(C)c2=S)c1 (centres undefined),i,1.1,102,
O=C1C(=O)N(C2CCCC2)C(=O)N1CCN1C(=O)c2ccccc2S1(=O)=O,i,1.1,90,
O=C(Cn1c(COc2ccc(Cl)cc2Cl)nc2ccccc21)c1c[nH]c2ccccc12,i,0.94,98,
CCN(CC)CCN1C(=O)C(=O)/C(=C(/O)c2ccc(OC)cc2C)C1c1ccc(O)cc1 (centres undefined),i,1,103,
CC(C)c1nc(N(C)S(C)(=O)=O)nc(-c2ccc(F)cc2)c1/C=C/[C@@H](O)C[C@@H](O)CC(=O)O,i,.,.,total CFTR fold 25 µM=1.1;total CFTR viability 25 µM=93

# Bioassay records from PubChem.
